Screening results deposited in PubChem by Southern Research Institute.
Mtb growth = Mycobacterium tuberculosis H37Rv growth inhibition, cell based, confirmatory dose response (AID 1949) | most inactive calls were filed without a number and no value below 0 was filed | actives 1.6% (n = 100,000) | inhibition, % at 10 µg/mL; hits with a dose series show IC50 in µg/mL;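 active means confirmed in a dose series; inconclusive means about 50% or more but not retested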;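 further: bacteria grown 7 days with compound before Alamar blue readout; 0% = untreated bacteria and 100% = reference antibiotic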
* = called active by the depositor. This is a subset. The share of hits here may be higher or lower than overall.

Results for CCOC(=O)c1c(C)n(-c2ccc(F)cc2)c2ccc(O)cc12 ?
Mtb growth: inactive

How did Cc1ccc(S(=O)(=O)N(CC(=O)O)c2ccc(C)c(C)c2)cc1 do in these assays?
Mtb growth: inactive

What do the screens show for `CCOc1ccc2c(=O)c(Oc3ccccc3OCC)coc2c1`?
Mtb growth: 3.5%

How did Cc1c(C(=O)NC(C)C)oc2ccccc12 do in these assays?
Mtb growth: inactive

Results for O=S(=O)(Nc1ccc(F)cc1)N1CCCCCC1 ?
Mtb growth: inactive

How did CCc1cccc(NC(=O)c2c(-c3ccccc3)noc2C)c1 do in these assays?
Mtb growth: inactive

Results for CSc1cccc(NC(=O)CSc2nnc(C(C)Oc3ccccc3)n2C)c1 (stereo unspecified) ?
Mtb growth: inactive

How did CCn1c(CC(=O)Nc2ccc(C)cc2)nnc1SCC(=O)Nc1cccc2ccccc12 do in these assays?
Mtb growth: inactive

Results for S=c1[nH]nc(-c2cccc(Cl)c2)n1Cc1ccccc1 ?
Mtb growth: inactive

Results for COc1ccc(NC(=O)CN(C2CCCCC2)S(=O)(=O)c2ccc(Cl)cc2)cc1 ?
Mtb growth: inactive

What do the screens show for `Cn1c(=O)c2c(nc(NCCc3ccccc3)n2Cc2ccccc2)n(C)c1=O`?
Mtb growth: inactive

Results for O=C(O)COc1cc(Cl)ccc1Cl ?
Mtb growth: inactive

What do the screens show for `CC(C)C(=O)Nc1ccc(C(=O)Nc2ccc(Cl)cc2C(=O)c2ccccc2)cc1`?
Mtb growth: 14.6%

Results for Cc1cc(C(=O)NCc2cc3ccccc3[nH]2)ccc1[N+](=O)[O-] ?
Mtb growth: 4.0%

Results for O=Cc1cc(Cl)ccc1OC(=O)c1ccccc1F ?
Mtb growth: inactive

What do the screens show for `O=C(Nc1ccc(I)cc1)[C@H]1CC=CC[C@H]1C(=O)O`?
Mtb growth: inactive

Results for NC1=NC2(CCCC2)N=C(Nc2ccc(F)cc2)N1 ?
Mtb growth: 4.4%

How did O=C(CSc1nnc(COc2ccccc2)n1-c1ccccc1)c1cccs1 do in these assays?
Mtb growth: inactive

How did COc1ccc(COc2ccc3c4c(c(=O)oc3c2C)CCCC4)cc1 do in these assays?
Mtb growth: 0.3%

What do the screens show for `CCCC(=O)Nc1ccc(Cl)c(NC(=S)NC(=O)c2ccc(Br)cc2)c1`?
Mtb growth: inactive

Results for COC(=O)C1CCN(C(=O)CSCc2ccccc2)CC1 ?
Mtb growth: inactive

What do the screens show for `Cc1c(Cl)ccc(OCCCCN(C)Cc2ccccc2)c1C`?
Mtb growth: inactive

How did COc1cc(C(=O)N(Cc2ccco2)c2ccc(O)cc2)cc(OC)c1OC do in these assays?
Mtb growth: inactive

What do the screens show for `CS(=O)(=O)N1CCC(C(=O)N2CCCCC2)CC1`?
Mtb growth: inactive

What do the screens show for `CC(=O)OC(C(=O)N1CCN(Cc2ccc3c(c2)OCO3)CC1)c1ccccc1` (stereo unspecified)?
Mtb growth: inactive

Results for CCOC(=O)CNC(=O)N1c2ccccc2Sc2ccccc21 ?
Mtb growth: inconclusive

Results for CC(=O)c1ccc(-n2c(CCC(=O)O)ccc2-c2cccs2)cc1 ?
Mtb growth: inactive

Results for Fc1ccc(CNC(=S)Nc2cccc(F)c2)cc1 ?
Mtb growth: inactive

What do the screens show for `COc1ccc(Cl)cc1NC(=S)Nc1cccc(C)n1`?
Mtb growth: inactive

What do the screens show for `Cc1cc(F)ccc1S(=O)(=O)NCc1ccco1`?
Mtb growth: inactive

What do the screens show for `O=C(Cn1cnc2ccccc21)N/N=C/c1ccc(O)cc1`?
Mtb growth: inactive

How did Cc1cccc(NC(=O)c2ccc(NC(=O)C(C)C)cc2)c1C do in these assays?
Mtb growth: 0.5%

What do the screens show for `COc1cccc(NC(=O)c2ccnc(C(C)(C)C)c2)c1`?
Mtb growth: 3.7%

What do the screens show for `CN(Cc1ccccc1)C(=O)C1(c2ccccc2)CCOCC1`?
Mtb growth: inactive

Results for COc1ccc(NC(=O)C(C)Oc2cccc(Cl)c2)cc1 (stereo unspecified) ?
Mtb growth: 0.9%

Results for Cc1cc(C)c(NC(=O)c2sc3nc4c(cc3c2N)C(=O)CCC4)c(C)c1 ?
Mtb growth: 40.2%

What do the screens show for `COc1cccc(-c2nnc(NC(=O)c3cccs3)s2)c1`?
Mtb growth: inactive

Results for FC(F)(F)c1cc(-c2ccccc2)n2ncnc2n1 ?
Mtb growth: inactive

What do the screens show for `Cc1scc(C(=O)NNC(=S)Nc2ccc3c(c2)OCO3)c1-c1ccccc1`?
Mtb growth: inactive

How did CCCCN1C(=O)C2CCC(=O)CC2C1=O (stereo unspecified) do in these assays?
Mtb growth: inactive

How did CC(C)C1Cc2c(sc3nc(SCC(=O)c4ccccc4)nc(N)c23)CO1 (stereo unspecified) do in these assays?
Mtb growth: inactive

How did NS(=O)(=O)c1ccc(CCNCc2cccs2)cc1 do in these assays?
Mtb growth: inactive

Results for Cn1c(=O)c2c(-c3ccccc3)n(-c3ccc(C(=O)O)cc3)cc2n(C)c1=O ?
Mtb growth: inactive

What do the screens show for `CCn1c(=O)c2c3c(sc2n2c(=S)[nH]nc12)CCCC3`?
Mtb growth: 7.4%

What do the screens show for `O=C(c1ccc(CSc2ccc(Cl)cc2)cc1)N1CCCC1`?
Mtb growth: inactive

What do the screens show for `COc1cccc(C(=O)Nc2ccc(Cl)c(Cl)c2)c1OC`?
Mtb growth: 40.8%

What do the screens show for `COc1cccc(NC(=O)CSCc2cccc(Cl)c2)c1`?
Mtb growth: 15.4%

Results for CCn1c(SCC(=O)Nc2ccccc2C(C)C)nnc1-c1ccc(C)cc1 ?
Mtb growth: inactive

How did COc1ccc(N2CCN(C(=O)c3sc4cc(Cl)ccc4c3Cl)CC2)cc1 do in these assays?
Mtb growth: 0.6%

What do the screens show for `CCSc1nnc2c3c4c(sc3nc(C)n12)CCCC4`?
Mtb growth: 4.9%

Results for CCCOc1ccc(N2C(=O)CC(NCCc3ccccc3F)C2=O)cc1 (stereo unspecified) ?
Mtb growth: inactive

How did CC(=O)c1cc(C)ccc1OC(=O)c1ccncc1 do in these assays?
Mtb growth: inactive

What do the screens show for `Fc1ccc(Cn2c(-c3cscn3)nc3ccccc32)c(Cl)c1`?
Mtb growth: inactive

How did COc1ccc(OC)c(N(CC(N)=O)S(=O)(=O)c2ccc(OC)c(OC)c2)c1 do in these assays?
Mtb growth: inactive

How did Cc1ccc(CNCCNCCO)s1 do in these assays?
Mtb growth: inactive

What do the screens show for `COc1ccc(C(=O)Nc2ccccc2)cc1S(=O)(=O)Nc1cccc(C)c1`?
Mtb growth: inactive

How did COc1cccc(N(CC(=O)Nc2cc([N+](=O)[O-])ccc2OC)S(=O)(=O)c2ccccc2)c1 do in these assays?
Mtb growth: inactive

Results for O=C(NCc1ccncc1)C(=O)Nc1cccc(C(F)(F)F)c1 ?
Mtb growth: inactive

How did C=CCn1c(SCC(=O)Nc2ccc(F)c(Cl)c2)nnc1-c1ccc(C)cc1 do in these assays?
Mtb growth: 2.3%

What do the screens show for `Cc1cc2c(cc1C)NC(CC(=O)Nc1ccc(N3CCOCC3)cc1)C(=O)N2` (stereo unspecified)?
Mtb growth: inactive

What do the screens show for `CCCCCC(C)NC(=O)c1ccc(-c2ccccc2)cc1` (stereo unspecified)?
Mtb growth: inactive

How did CS(=O)(=O)N(CC(=O)Nc1ccc2c(c1)OCO2)Cc1ccccc1 do in these assays?
Mtb growth: inactive

Results for CCCCC(=O)Nc1ccc(C(=O)N2CCC(Cc3ccccc3)CC2)cc1 ?
Mtb growth: 7.2%

What do the screens show for `CCSc1nnc(NC(=O)CSc2nnc3c(n2)[nH]c2ccccc23)s1`?
Mtb growth: 0.1%

What do the screens show for `C=CCn1c2ccc(Br)cc2c2nc3ccccc3nc21`?
Mtb growth: 4.3%

Results for CS(=O)(=O)N(Cc1ccccc1)c1ccc(C(=O)Nc2ccccc2)cc1 ?
Mtb growth: inactive

How did COc1ccccc1NC(=O)C1=C(C)NC(SCC(=O)Nc2ccccc2[N+](=O)[O-])=C(C#N)C1c1ccccc1F (stereo unspecified) do in these assays?
Mtb growth: 12µg/mL*

Results for CC1CC(C(F)(F)C(F)(F)F)n2nc(C(=O)O)cc2N1 (stereo unspecified) ?
Mtb growth: inactive

What do the screens show for `CCn1c(SCC(=O)Nc2ccccc2C)nnc1-c1ccc(Br)cc1`?
Mtb growth: inactive

What do the screens show for `Cc1c2occ(-c3ccccc3)c2cc2c3c(c(=O)oc12)CCCC3`?
Mtb growth: inactive

How did O=C(NCCN=C1NS(=O)(=O)c2ccccc21)c1ccc(F)cc1 do in these assays?
Mtb growth: inactive

Results for Cc1cc(OCc2nc(-c3cccnc3)no2)cc(C)c1Br ?
Mtb growth: inactive

Results for Cc1cc(C)cc(C(=O)NC(=S)Nc2ccc3c(c2)OCCO3)c1 ?
Mtb growth: inactive

Results for O=C(Nc1cc(F)ccc1F)c1ccc(Br)o1 ?
Mtb growth: inactive

Results for C1CN=C(SCCCSC2=NCCCN2)NC1 ?
Mtb growth: inactive

What do the screens show for `COc1ccc(OCCn2cc(C#N)c3ccccc32)cc1`?
Mtb growth: inactive

How did CCN(CC)S(=O)(=O)c1ccc(NC(=O)C2c3ccccc3Oc3ccccc32)cc1 do in these assays?
Mtb growth: inactive

How did Cn1c(=O)c2c(-c3ccccc3)n(C3CCCCC3)cc2n(C)c1=O do in these assays?
Mtb growth: 4.0%

Results for O=C(Nc1ccc(Br)cc1F)C1COc2ccccc2O1 (stereo unspecified) ?
Mtb growth: inactive

What do the screens show for `O=C(O)CNC(=O)CNC(=O)c1cccs1`?
Mtb growth: inactive

For convenience, some entries already given.
Results for CC1CC(C(F)(F)C(F)(F)F)n2nc(C(=O)O)cc2N1 (stereo unspecified) ?
Mtb growth: inactive

What do the screens show for `CCn1c(SCC(=O)Nc2ccccc2C)nnc1-c1ccc(Br)cc1`?
Mtb growth: inactive

What do the screens show for `Cc1c2occ(-c3ccccc3)c2cc2c3c(c(=O)oc12)CCCC3`?
Mtb growth: inactive

How did O=C(NCCN=C1NS(=O)(=O)c2ccccc21)c1ccc(F)cc1 do in these assays?
Mtb growth: inactive

Results for Cc1cc(OCc2nc(-c3cccnc3)no2)cc(C)c1Br ?
Mtb growth: inactive

Results for Cc1cc(C)cc(C(=O)NC(=S)Nc2ccc3c(c2)OCCO3)c1 ?
Mtb growth: inactive

Results for O=C(Nc1cc(F)ccc1F)c1ccc(Br)o1 ?
Mtb growth: inactive

Results for C1CN=C(SCCCSC2=NCCCN2)NC1 ?
Mtb growth: inactive

What do the screens show for `COc1ccc(OCCn2cc(C#N)c3ccccc32)cc1`?
Mtb growth: inactive

How did CCN(CC)S(=O)(=O)c1ccc(NC(=O)C2c3ccccc3Oc3ccccc32)cc1 do in these assays?
Mtb growth: inactive

How did Cn1c(=O)c2c(-c3ccccc3)n(C3CCCCC3)cc2n(C)c1=O do in these assays?
Mtb growth: 4.0%

Results for O=C(Nc1ccc(Br)cc1F)C1COc2ccccc2O1 (stereo unspecified) ?
Mtb growth: inactive

What do the screens show for `O=C(O)CNC(=O)CNC(=O)c1cccs1`?
Mtb growth: inactive

The list goes on.
What do the screens show for `CC(C(=O)Nc1ccc(S(=O)(=O)N2CCCCC2)cc1)c1ccccc1` (stereo unspecified)?
Mtb growth: inactive

How did O=C(O)CN(c1cccc(Cl)c1Cl)S(=O)(=O)c1ccccc1 do in these assays?
Mtb growth: inactive

Results for Cc1c(Cl)ccc2c(=O)c(C(=O)O)c[nH]c12 ?
Mtb growth: 29.6µg/mL*

Results for N#C/C(=C\c1cc(Cl)ccc1OCc1c(F)cccc1Cl)c1nn(-c2ccccc2)c(N)c1C#N ?
Mtb growth: 25.6%

What do the screens show for `CCOC(=O)c1cnn(-c2ccccc2)c1NC(=O)Cc1ccc(OC)cc1`?
Mtb growth: inactive

What do the screens show for `CN(C)CCNC(=O)NC(c1ccccc1)c1ccccc1`?
Mtb growth: inactive

How did CCCCOc1ccccc1NC(=O)c1ccc(Cl)cc1Cl do in these assays?
Mtb growth: inactive

Results for O=C(O)c1ccc(NC(=S)NC(=O)c2ccco2)cc1 ?
Mtb growth: inactive

How did COc1ccc(CNc2sc3c(c2C(=O)Nc2ccc(OC)cc2OC)CCC3)cc1 do in these assays?
Mtb growth: inactive

Results for COc1ccc(NC(=O)CSc2nccc(C)n2)cc1 ?
Mtb growth: 1.6%

What do the screens show for `COc1cccc(NC(=O)CN(c2ccccc2Br)S(C)(=O)=O)c1`?
Mtb growth: inactive

Results for COC(=O)c1ccc(NC(=O)CN(Cc2cccc(Cl)c2)S(=O)(=O)c2ccc(C)cc2)cc1 ?
Mtb growth: 0.1%

What do the screens show for `CC(=O)c1cccc(NC(=O)CN(Cc2ccccc2)S(C)(=O)=O)c1`?
Mtb growth: inactive

How did Cc1nc(-c2ccccc2O)n(S(=O)(=O)N(C)C)n1 do in these assays?
Mtb growth: 0.4%

How did Nc1nnc(SCC(=O)Nc2ccc(OC(F)(F)F)cc2)s1 do in these assays?
Mtb growth: inactive

What do the screens show for `COc1ccc(NC(=O)Nc2ccc(Cl)c(Cl)c2)c(OC)c1`?
Mtb growth: 1.1%

How did CCC(C(=O)Nc1ccccc1Cl)c1ccccc1 (stereo unspecified) do in these assays?
Mtb growth: inactive

Results for O=C(c1ccccc1O)N1CCN(c2ccccc2)CC1 ?
Mtb growth: inactive

Results for COc1cc(C2Nc3ccccc3NC3=C2C(=O)CC(C)(C)C3)ccc1O (stereo unspecified) ?
Mtb growth: inactive

Results for CCOC(=O)Cc1cc(-c2ccccc2O)nc2ccc3ccccc3c12 ?
Mtb growth: inactive

How did COc1ccccc1OCCCC(=O)NCCc1ccccc1 do in these assays?
Mtb growth: inactive

How did Cc1ccc(F)cc1NC(=O)c1ccc(Cl)cc1Cl do in these assays?
Mtb growth: 20.0%

How did O=C(Nc1cccc(C(=O)O)c1)/C(=C\c1cccc([N+](=O)[O-])c1)NC(=O)c1ccccc1Br do in these assays?
Mtb growth: inactive

What do the screens show for `Cc1occc1C(=O)Nc1ccn(Cc2ccc(Cl)cc2)n1`?
Mtb growth: 40.8%

How did Cc1nnc2sc(-c3ccc(NC(=O)Cc4ccc(Cl)cc4)cc3)nn12 do in these assays?
Mtb growth: inactive
